YopH PTP inh – blocks Yersinia enterocolitica YopH tyrosine phosphatase; fluorescence Ex485/Em525; inhibition, %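 (about 10 µM by stock and volumes)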; 140,000 compounds, 0.16% hits; AID 898;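 active = inhibition of 50% or more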;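 also: controls were vehicle for no effect and minimum signal wells for full effect; inactives centre near -20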
Mtb growth – M. tuberculosis H37Rv growth inhibitors, H37Rv strain (AID 1626); inhibition, % at 10 µM, or IC50 in µM where a hit was titrated; 220,000 compounds, 0.95% hits; M. tuberculosis H37Rv growth inhibition; higher % means a stronger effect;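 active = confirmed in a dose series; inconclusive = inhibition above 80% but not taken into the dose series; inactive = below 80% or under 30% at every dose of the series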;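 also: bacteria incubated seven days before Alamar blue readout; 0% = bacteria only wells and 100% = bacteria with antibiotic wells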
Arbovirus anti – arbovirus infection inhibition; arbovirus infection cell-based antiviral screen; inhibition, % at 10 µM; 200,000 compounds, 0.37% hits; AID 1251;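 active = inhibition from about 30%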;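 also: bluetongue infection of BSR cells; cell survival read as ATP light after 72 h; 0% = infected wells without compound and 100% = uninfected wells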
RecA splice inh – inhibitors of M. tuberculosis RecA intein splicing. cell-free RecA intein splicing, fluorescence. inhibition, %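 (about 9 µM by stock and volumes)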. 290,000 compounds, 0.75% hits. AID 2221; in the data active = inhibition above about 30%; inconclusive = no clear call, values can overlap the other calls;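 also: 0% = vehicle wells and 100% = reference inhibitor control wells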
Target sequence (P9WHJ3 whole entry, looked up, canonical isoform): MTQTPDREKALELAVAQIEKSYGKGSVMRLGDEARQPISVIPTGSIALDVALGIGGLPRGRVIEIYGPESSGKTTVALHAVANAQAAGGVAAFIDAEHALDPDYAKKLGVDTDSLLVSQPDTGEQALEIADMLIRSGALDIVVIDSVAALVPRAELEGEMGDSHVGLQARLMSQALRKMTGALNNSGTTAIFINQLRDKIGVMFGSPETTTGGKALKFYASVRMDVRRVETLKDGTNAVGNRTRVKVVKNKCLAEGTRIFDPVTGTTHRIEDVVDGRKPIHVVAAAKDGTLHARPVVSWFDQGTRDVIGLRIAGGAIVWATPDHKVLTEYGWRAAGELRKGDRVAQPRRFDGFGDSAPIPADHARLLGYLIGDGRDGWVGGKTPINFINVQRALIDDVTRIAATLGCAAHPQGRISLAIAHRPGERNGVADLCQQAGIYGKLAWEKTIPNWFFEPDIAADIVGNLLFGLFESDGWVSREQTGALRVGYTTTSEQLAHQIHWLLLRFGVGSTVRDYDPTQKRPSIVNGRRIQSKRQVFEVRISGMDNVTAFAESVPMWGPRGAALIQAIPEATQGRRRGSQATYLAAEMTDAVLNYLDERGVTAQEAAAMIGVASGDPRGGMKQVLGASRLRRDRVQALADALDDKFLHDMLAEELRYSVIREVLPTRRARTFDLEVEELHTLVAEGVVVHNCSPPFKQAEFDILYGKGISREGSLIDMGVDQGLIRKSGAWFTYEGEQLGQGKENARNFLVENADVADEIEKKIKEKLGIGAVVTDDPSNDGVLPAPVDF
Mtb betalactam – beta-lactam sensitization of Mtb H37Rv; M. tuberculosis H37Rv growth with meropenem, percent inhibition; hits of this screen are not shown here; inhibition, % at 25 µM; 330,000 compounds, 0.27% hits;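 active = about 74% or more and at least 40 points above the plate without the antibiotic, then above 30% in a dose series; inconclusive = first-round hits that could not be retested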;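 also: growth measured after seven days incubation then overnight dye step; 0% = bacteria only wells and 100% = bacteria with antibiotic; twin plates without the antibiotic show which effects depend on it; some results filed as inactive read as strong as hits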
Arbovirus anti repeat – second read-out of Arbovirus anti, no call of its own (marks repeat the call); inhibition, %; measured here: 10K subset replicate screen; many hits read low in the repeat;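 first of two repeat runs on a subset; 0% = infected and 100% = uninfected wells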
* marks the source's active call; other numbers are inactive results; u = inconclusive; x = no result given.

SMILES | YopH PTP inh | Mtb growth | Arbovirus anti | RecA splice inh | Mtb betalactam | others
CN(CC(=O)Nc1ccccc1Cl)C(=O)COC(=O)c1ccc(Cl)nc1 | x | x | x | -1.6 | 1
CN1CCN(c2nc3nonc3nc2N2CCN(C)CC2)CC1 | -40 | -3% | 5 | -1.4 | -8
Cc1ccc(S(=O)(=O)N2CCOCC2)cc1NC(=O)COC(=O)COc1cccc2c1OC(C)(C)C2 | x | x | x | 0.5 | -7
Cc1[nH]n(-c2ccccc2)c(=O)c1/C=N/c1nn[nH]n1 | x | -6% | 8 | 3.3 | -9
O=C(Nc1cccc(OCC(=O)N2CCOCC2)c1)c1ccc(C(F)(F)F)cc1 | x | x | x | -1.0 | 2
COc1cccc(C2CC(c3ccccc3Cl)n3ncnc3N2)c1 (configuration not stated) | -30 | 2% | -9 | -5.7 | 27
Cc1cccc(/C=N/NC(=O)c2cccc(Cl)c2)n1 | x | x | x | -0.8 | 58
CN(C)C(=N)c1n[nH]nc1SCc1ccc(Cl)c(Cl)c1 | x | -3% | 1 | -15 | -6
O=C(NCC1CCCO1)c1cccc(S(=O)(=O)N2CCOCC2)c1 (configuration not stated) | x | x | x | 1.9 | -5
COc1cc(NC(=S)NC(=O)c2ccco2)ccc1NC(=O)C(C)C | x | 0% | 0 | -7.3 | x
COc1ccc(S(=O)(=O)Nc2ccncc2)c(C)c1C | x | 5% | 1 | -2.9 | -2
CCOC(=O)N1CCN(C(=O)C2c3cc(OC)c(OC)cc3C(=O)N3CCc4ccccc4C23)CC1 (configuration not stated) | 4 | 2% | 9 | 4.7 | -8
CCCc1cc(=O)oc2cc(OCc3ccc(C(=O)O)cc3)ccc12 | x | x | x | -4.1 | 1
CCc1cccc(NC(=O)CCc2nc(-c3cccs3)no2)c1 | -16 | 81% | 9 | 1.9 | 1 | Arbovirus anti repeat=2
Cc1ccc(S(=O)(=O)C(C#N)c2nc3ccccc3nc2N2CC(C)OC(C)C2)cc1C (configuration not stated) | -42 | 1% | -6 | -113 | -12
O=C(O)c1cnn2c(C(F)F)cc(C(F)F)nc12 | -35 | -3% | 5 | 0.9 | -6
COCCN1C(=O)C(=O)/C(=C(/O)c2ccc(S(=O)(=O)N3CCOCC3)cc2)C1c1cccc(OC)c1 (configuration not stated) | x | x | x | 8.6 | 0
CCN(C(=O)c1c(-c2ccccc2Cl)noc1C)C1CCCCC1 | x | x | x | 4.2 | -5
Cc1ccc(-c2ccc(=O)n(Cc3cc(C)ccc3C)n2)cc1 | x | x | x | 1.5 | 14
CCCCC(=O)Nc1ccc(C(=O)Nc2ccc(S(=O)(=O)Nc3ccc(C)cc3)cc2)cc1 | -34 | -4% | -8 | -0.4 | 0
CCOC(=O)c1ccccc1NC(=O)C1CCCO1 (configuration not stated) | x | x | x | 5.6 | -9
CCN1CCN(CCC(=O)Nc2ccccc2)CC1 | x | x | x | -1.1 | -3
O=C(COC(=O)c1ccccc1SCC(=O)N1CCCC1)Nc1ccc(OC(F)F)cc1 | x | x | x | 0.3 | -22
CCOC(=O)C1(Cc2cccc(F)c2)CCN(C2CCOCC2)CC1 | x | 2% | -10 | 2.4 | -2
COc1ccc(CC(=O)NNC2=Nc3cccc4cccc2c34)cc1 | x | x | x | -2.8 | -3
Cc1ccc(S(=O)(=O)N(C)C)cc1NC(=O)COC(=O)/C(=C/c1ccc(F)cc1)c1cccs1 | -12 | -1% | 6 | -0.3 | 1
CS(=O)(=O)c1cnc2c(-c3ccc(F)cc3)cnn2c1N | -2 | -8% | 0 | -0.7 | 2
COc1ccccc1NS(=O)(=O)c1cccc(C(=O)N(C)Cc2cccs2)c1 | x | x | x | 0.8 | -1
Clc1ccc(-c2cn3nc4c(nc3n2)CCCC4)cc1 | -15 | 0% | -8 | -111 | -7
CCCCSc1nc(C)c(CC(=O)OC)c(=O)[nH]1 | -30 | 10% | -8 | x | -10
CS(=O)(=O)N(CCc1ccccc1)CC(=O)N1CCN(c2ccc(F)cc2)CC1 | -21 | -1% | 4 | -2.9 | 3
CCOc1cc(C(=O)Nc2cc(C)on2)cc(OCC)c1OCC | -120 | -3% | 5 | 0.7 | -6
O=C(CCNC(=O)c1ccccc1Cl)Nc1cc(S(=O)(=O)N2CCOCC2)ccc1N1CCCC1 | x | -10% | x | -1.1 | -6
Cn1c(=O)c2c(nc(CN3CCN(c4ccccc4)CC3)n2CCc2ccccc2)n(C)c1=O | -17 | 9% | x | -0.6 | 16
CC(C)Oc1ccc(-c2cc(C(=O)NCCN3CCOCC3)c3ccccc3n2)cc1 | -5 | 13% | -6 | -0.9 | 82
COc1ccccc1/C=C/C(=O)NCC(=O)N=Nc1c(O)[nH]c2ccccc12 | x | x | x | -2.8 | 2
CC(=C/c1ccc(C(C)C)cc1)/C=N/NC(=O)CSc1ccccn1 | -33 | u | -42 | 24 | 16
CCOC(=O)c1cc(C#N)c(SCC(=O)OC)[nH]c1=O | x | -5% | x | x | 7
Cc1csc(NC(=O)CN2C(=O)COc3ccc(Cl)cc32)n1 | x | x | x | -3.2 | -12
COC(=O)c1nc2ccccc2s1 | -17 | -8% | 13 | -0.4 | -2
CCCc1cc2c(=O)c(-c3ccc4c(c3)OCCO4)coc2cc1OS(C)(=O)=O | -21 | 9% | -4 | -1.8 | 5
Cn1cnnc1SC1CCCCC1NS(=O)(=O)c1ccccc1 (configuration not stated) | -38 | 0% | 2 | 3.0 | 15
COc1ccc(-n2c(SCC(=O)C(C)(C)C)nc3c(sc(=S)n3-c3ccccc3)c2=O)c(OC)c1 | x | x | x | -27 | 60
O=C(O)c1ccccc1NCc1ccsc1 | x | x | x | -0.2 | -3
CN(Cc1ccco1)C(=O)C1CCC(=O)N1Cc1ccc(F)cc1 (configuration not stated) | -30 | -7% | 5 | 0.4 | -9
COc1cccc(-c2nnc(NC(=O)c3ccc(S(=O)(=O)N4CC(C)OC(C)C4)cc3)o2)c1 (configuration not stated) | -46 | x | -14 | 0.0 | 92
CC1CC(C)CN(C(=O)C(Cc2ccccc2)NC(=O)c2ccccc2)C1 (configuration not stated) | x | x | x | 3.9 | -1
O=C(NC1CC1)C1CCN(c2ncccn2)CC1 | x | x | x | -2.5 | 5
CCOC(=O)C[N+](C)(C)CCOC1CC2CCC1(C)C2(C)C (configuration not stated) | x | 0% | -2 | -1.3 | 2
Cc1ccccc1NC(=O)CSc1n[nH]c(-c2ccco2)n1 | x | 4% | 2 | 0.8 | 0
Cc1ccc(NC(=O)CN2C(=O)S/C(=C\c3ccccn3)C2=O)cc1C | x | x | x | -2.4 | -2
Nc1nc(SCc2nc3sc4c(c3c(=O)[nH]2)CCCC4)n[nH]1 | -21 | 3% | 5 | 1.5 | 3
Cc1ccc(NC(=O)c2ccc3c(c2)nnn3C)cc1 | -16 | -4% | 5 | -2.1 | 1
COC(=O)c1cc(=O)nc2sc(-c3cccs3)nn12 | 15 | -5% | -1 | -1.2 | -4
Cc1ccc(CSc2ccc3nnc(-c4ccccn4)n3n2)cc1 | x | 8% | -4 | -0.3 | 22
O=C(CCNC(=O)c1ccco1)Nc1ccc(Cl)c(C(F)(F)F)c1 | x | x | x | -0.1 | 0
Cc1ccccc1CNC(=O)CCCC(=O)n1nc(C)c2ccccc21 | x | x | x | -0.3 | 1
CCn1ccnc1CN1CCCC(C(=O)c2cc(F)ccc2OC)C1 (configuration not stated) | x | 11% | 11 | 1.0 | 4
O=C(O)CSc1nc2sc3c(c2c(=O)n1Cc1ccccc1)CCCCC3 | x | x | x | 0.8 | -3
O=c1oc2ccccc2cc1-c1csc(Nc2nc3c(F)cccc3s2)n1 | -13 | 13% | -11 | 0.2 | 1

The list continues.
SMILES | YopH PTP inh | Mtb growth | Arbovirus anti | RecA splice inh | Mtb betalactam | others
CCn1nc(C(=O)OCc2c(C)noc2C)c2ccccc2c1=O | -8 | 5% | 9 | 1.5 | 3
CCOC(=O)C1CCN(Cc2nc(-c3ccc(OC)c(OC)c3)no2)CC1 | -30 | -2% | 1 | -7.5 | 8
Cn1cc([N+](=O)[O-])c(C(=O)N/N=C/c2cc3c(cc2Br)OCO3)n1 | x | 0% | -2 | -3.3 | -2
CC(C)(Cc1ccccc1)/[N+]([O-])=C\c1ccccc1 | x | x | x | -6.2 | 19
CN(C)S(=O)(=O)c1ccc(Cl)c(NC(=O)CSc2nc3c(cc2C#N)C(=O)CC(C)(C)C3)c1 | -26 | 4% | -8 | -0.5 | 6
Cc1ccc(C(=O)NC(=C(Cl)Cl)S(=O)(=O)c2ccc(Cl)cc2)cc1 | x | -3% | -33 | 29 | 6
O=C(NCCc1ccccc1)C1CCCN1C(=O)Nc1ccc(Cl)cc1 (configuration not stated) | x | x | x | 1.0 | -23
CC(=O)Oc1ccc(C(=O)Nc2ccc(S(=O)(=O)NCC3CCCO3)cc2)cc1 (configuration not stated) | x | x | x | 4.6 | -3
CCCCCCCC(=O)OC(CN1CCCCCC1)CN1CCCC1=O (configuration not stated) | x | 5% | x | -1.0 | -6
O=C(CN1C2=NCCN2c2ccccc21)c1cccs1 | -22 | -2% | 7 | 1.2 | 6
CCc1ccc2[nH]c(=O)c(CN(Cc3ccccc3OC)Cc3nnnn3Cc3ccco3)cc2c1 | -17 | 10% | -23 | 27 | 28
CCCCCCn1c(SCC(C)C)nc2c1c(=O)[nH]c(=O)n2C | -39 | 8% | -29 | 0.1 | -7
Cc1nc(CNS(=O)(=O)c2cc([N+](=O)[O-])ccc2C)cs1 | x | -7% | x | -3.5 | -1
COc1ccc(C(=O)N/N=C/C23CC[C@@H](O)CC2(O)CC[C@@H]2[C@@H]3CCC3(C)C(C4=CC(=O)OC4)CCC23O)cc1 (some centres not stated) | x | -8% | x | -1.0 | -7
NP(=O)(OCCCc1ccccc1)Oc1ccc(Cl)cc1 (configuration not stated) | x | x | x | 1.9 | -4
Cc1cc(C)cc(NC(=O)CSc2nnc(Cn3c(=O)sc4ccccc43)n2C)c1 | -19 | -6% | -2 | x | 0 | Arbovirus anti repeat=-5
COc1cccc(-c2nn(C)c3sc(C(=O)NCc4ccccn4)cc23)c1 | -38 | -9% | 2 | -2.8 | -9
O=C1C(Cl)=C(N2CCCCC2)C(=O)N1c1ccccc1 | -11 | 3% | 2 | 41* | x
CC(C)(C)OC(=O)NCCCC[C@H](NC(=O)c1[nH]cnc1C(=O)Nc1ccc(Cl)cc1)C(=O)OC(C)(C)C | x | 34% | x | 2.0 | 0
Cc1ccc(NC(=O)/C(=C\c2ccc3c(c2)OCO3)NC(=O)c2ccco2)cc1 | -38 | -4% | 2 | -0.1 | -4

Next section, overlapping the part above by six compounds.
SMILES | YopH PTP inh | Mtb growth | Arbovirus anti | RecA splice inh | Mtb betalactam | others
NP(=O)(OCCCc1ccccc1)Oc1ccc(Cl)cc1 (configuration not stated) | x | x | x | 1.9 | -4
Cc1cc(C)cc(NC(=O)CSc2nnc(Cn3c(=O)sc4ccccc43)n2C)c1 | -19 | -6% | -2 | x | 0 | Arbovirus anti repeat=-5
COc1cccc(-c2nn(C)c3sc(C(=O)NCc4ccccn4)cc23)c1 | -38 | -9% | 2 | -2.8 | -9
O=C1C(Cl)=C(N2CCCCC2)C(=O)N1c1ccccc1 | -11 | 3% | 2 | 41* | x
CC(C)(C)OC(=O)NCCCC[C@H](NC(=O)c1[nH]cnc1C(=O)Nc1ccc(Cl)cc1)C(=O)OC(C)(C)C | x | 34% | x | 2.0 | 0
Cc1ccc(NC(=O)/C(=C\c2ccc3c(c2)OCO3)NC(=O)c2ccco2)cc1 | -38 | -4% | 2 | -0.1 | -4
Cc1ccsc1/C=C1/SC(=O)N(CC(=O)N2CCOCC2)C1=O | -42 | 2% | -8 | -3.5 | -5
Cc1ccc(CS(=O)(=O)CC(C)(O)c2ccccc2)cc1 (configuration not stated) | x | x | x | 1.3 | 0
CCOc1ccc(CN2CCN(Cc3cccn3-c3cccnc3)CC2CCO)cc1 (configuration not stated) | x | 4% | 3 | -3.0 | 2
CC(Oc1ccccc1)C(=O)OCC(=O)N1CC(=O)Nc2ccccc21 (configuration not stated) | x | -12% | 11 | 0.6 | 5
CC1Cc2ccccc2N1C(=O)CSc1nc2ccccc2n1CC(=O)N1CCOCC1 (configuration not stated) | -17 | 0% | 9 | 0.2 | 13
CCCCOC(=O)c1ccc(OC(=O)N2CCOCC2)cc1 | x | x | x | -2.8 | 0

Already shown: two of the compounds above.
SMILES | YopH PTP inh | Mtb growth | Arbovirus anti | RecA splice inh | Mtb betalactam | others
CCOc1ccc(CN2CCN(Cc3cccn3-c3cccnc3)CC2CCO)cc1 (configuration not stated) | x | 4% | 3 | -3.0 | 2
CC(Oc1ccccc1)C(=O)OCC(=O)N1CC(=O)Nc2ccccc21 (configuration not stated) | x | -12% | 11 | 0.6 | 5

This is a subset. The share of hits here may be higher or lower than overall.
